2A StopGo = High Throughput Screening for Foot and Mouth Disease Virus Antivirals; Potency, µM (series often up to 57.9 µM), for inactives: at the top dose signal change, negative = less light; AID 1159524, 2015; 410,000 tested, 1.2% active; human cells with a luciferase reporter of 2A StopGo recoding; control for the full effect not named in the record; active = well fitted falling curve with a large enough effect; inconclusive = small, poorly fitted or top-dose-only effect; inactive = no such curve, though single readings can be large or run the other way; tested in HEK293T cells; also: nearly all actives have a fitted effect of over 45% in size; luciferase light after 4 h
RE007 growth inh = qHTS Assay for Inhibitors of the HIV-1 protein Vpr; S. pombe RE007 Vpr strain, BacTiter-Glo ATP luminescence, 24 h; control for the full effect not named in the record; Potency, µM (highest dose often 92.2 µM), without a hit: at the highest dose activity change, negative = less growth; 360,000 tested, 0.21% active; active = well fitted falling curve with a large enough effect; inconclusive = small, poorly fitted or top-dose-only effect; inactive = no such curve, though single readings can be large or run the other way;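 also: nearly all actives have a fitted effect of over 50% in size; the assay follows cell death caused by Vpr and the record does not say whether a fall means rescue or toxicity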
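Fission yeast RE007 carrying one integrated HIV-1 vpr copy, seeded at OD 0.01 in PMG+AL medium with 23 nL pinned compound. Grown 24 h at 30 degrees; viability read by BacTiter-Glo luminescence after 5 min.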
The depositor's hits bear a star; ? = inconclusive; [ ] = remark or other dose. % is scaled to controls: 0 for no effect and ±100 for the full control effect; potency is read from the fitted curve at half-maximal effect. An excerpt, so the mix of outcomes need not match the whole.

SMILES | 2A StopGo | RE007 growth inh
COc1ccc(CCCNC(=O)C2(C)Cc3c(-c4ccc(C(N)=O)cc4)ccnc3O2)cc1 (stereo not given) | -18.0% | 9.3%[18.4 µM]
CCCCCCCCCc1conc1C(=O)CP(=O)(OC)OC | -15.6% | 0.0%
Cn1c(=O)c2c(-c3ccccc3)n(-c3ccccc3F)cc2n(C)c1=O | ? | 3.2%
CCc1nnc(NS(=O)(=O)c2ccc(NC(=O)c3ccc([N+](=O)[O-])s3)cc2)s1 | 0.0% | 4.1%
COc1ccc(CCN2C(=O)CCC2(C)c2nnnn2-c2ccc3c(c2)OCCO3)cc1OC (stereo not given) | -11.8% | 5.1%
CC(C)C[C@@H](CN)NC(=O)c1nc[nH]c1C(=O)N[C@@H](C)C(=O)CNC[C@H](C)NC(=O)c1nc[nH]c1C(=O)N[C@@H](Cc1ccccc1)C(=O)O | -17.4% | -12.6%
CCOC(=O)C1=CCN(S(=O)(=O)c2ccc(C)cc2)C1c1ccc(CC)cc1 (stereo not given) | -14.8% | 17.5%
O=S(=O)(c1ccc(Br)cc1F)N1CCCCC1CCO (stereo not given) | -16.1% | 1.8%
COc1ccc(S(=O)(=O)NC(=O)C2(C)CCN2C(=O)Cc2cc(C)cc(C)c2)cc1OC (stereo not given) | -9.7% | 2.5%[18.4 µM]
COC(=O)[C@@]12C[C@@H](CC(=O)NCC3CCCCC3)C(=O)N(Cc3ccccc3)C1=CCC(C)(C)C2 | -4.7% | 0.0%
CCOc1ccccc1N(CC(=O)Nc1ccccc1Br)S(=O)(=O)c1ccccc1 | -20.3% | -0.4%
COc1cc(C(=O)N2CCN(S(=O)(=O)c3ccc(Cl)cc3)CC2)ccc1OCC(=O)N1CCOCC1 | -18.2% | -19.5%
COc1ccc(NC(=O)C2CCCCN2S(=O)(=O)c2ccccc2)cc1S(=O)(=O)N1CCOCC1 (stereo not given) | -6.1% | -8.5%
COc1cc(OC)c(NS(=O)(=O)c2cc(C(=O)NCCCN3CCOCC3)ccc2C)cc1Cl | 29.5% | -26.3%
COc1ccccc1C(=O)NCCN1CCC(n2c(=O)[nH]c3ccccc32)CC1 | -1.2% | 0.0%

Reprinted from the part before: two entries; new compounds follow.
SMILES | 2A StopGo | RE007 growth inh
COc1cc(OC)c(NS(=O)(=O)c2cc(C(=O)NCCCN3CCOCC3)ccc2C)cc1Cl | 29.5% | -26.3%
COc1ccccc1C(=O)NCCN1CCC(n2c(=O)[nH]c3ccccc32)CC1 | -1.2% | 0.0%
CC1(C(=O)Nc2ccc3c(c2)OCCO3)CCN1C(=O)c1ccccc1CCc1ccccc1 (stereo not given) | ? | -9.8%
COC(=O)[C@]12CCCCC=C1N(Cc1ccc3c(c1)OCO3)C(=O)[C@H](CC(=O)NCc1ccc(OC)c(OC)c1)C2 | -20.0% | -4.4%
C=C1CCN([C@@H](CC(C)C)C(=O)NCc2ccc(Cl)cc2)S(=O)(=O)c2ccccc21 | 8.1% | -4.5%
COC(=O)[C@]12CCCCC=C1N(Cc1ccc(Cl)cc1Cl)C(=O)[C@H](CC(=O)NCCC(C)C)C2 | -7.3% | 2.3%
O=C(CCN1C(=O)CC1c1ccco1)N1CCOCC1 (stereo not given) | -9.2% | 6.8%
CC1(c2nnc(-c3cccc(Cl)c3)o2)CC(c2c(Cl)cccc2Cl)=NO1 (stereo not given) | -12.3% | -2.4%
O=C(Nc1cc(C(F)(F)F)ccc1N1CCOCC1)c1cccc(S(=O)(=O)N2CCOCC2)c1 | -22.5% | -5.0%
CCOC(=O)[C@]12CCC=C1N(Cc1ccc(Cl)cc1Cl)C(=O)[C@H](CC(=O)N1CCC(c3ccccc3)CC1)C2 | -6.8% | -17.3%
CC(=O)NC(c1ccc(F)c(F)c1)c1nc(-c2cccc(C(F)(F)F)c2)cs1 (stereo not given) | 0.8% | 12.0%
COc1cccc(C(=O)NCCNc2nc3cc(C)cc(C)c3cc2C#N)c1 | -11.2% | 0.0%
CC(=O)Nc1cncc(-c2ccccc2F)n1 | -20.2% | 4.1%
COc1cc(C(O)c2nc(-c3cccc(NC(C)=O)c3)cs2)ccc1F (stereo not given) | 0.0% | -12.6%[18.4 µM]
CCOc1cc(C=NNC(=O)N(c2ccccc2)c2ccccc2)ccc1O | 12.6% | -11.8%
CCN(C(=O)COC(=O)c1cc2ccccc2cc1OC)c1c(N)n(Cc2ccccc2)c(=O)[nH]c1=O | ? | 5.7%
CCCNC(=O)C1(CC2CC(c3ccccc3)=NO2)CCN(C(=O)Cc2ccc(F)cc2)CC1 (stereo not given) | -8.2% | 3.5%
CC1(C(=O)Nc2ccc(Cl)c(Cl)c2)CCN1C(=O)CC1CCCC1 (stereo not given) | ? | 6.1%
Cc1ccc(OCc2occc2C(=O)O)cc1 | 32.0%[activator] | -4.9%
CCOC(=O)C1=CCN(S(=O)(=O)c2ccccc2F)C1c1ccccc1 (stereo not given) | -14.1% | 4.0%
CCN(CC)CCOC(=O)c1ccc(N=CC2=C(O)CC(C)(C)CC2=O)cc1 | -20.1% | 4.9%
COc1cccc(-c2cnc(C(O)c3c(C)cccc3C)[nH]2)c1 (stereo not given) | -9.2% | -23.2%[18.4 µM]
O=C(Nc1cccc(C(F)(F)F)c1)c1cccc2c(-c3cccnc3)coc12 | ? | -4.3%
C[C@@H](c1ccccc1)N1C[C@@H](COCc2ccccc2)Oc2cc(N3CC[C@@H](O)C3)ccc2S1(=O)=O | 16.1% | -2.9%
COCCN1C(=O)CCC1(C)c1nnnn1Cc1ccccc1 (stereo not given) | -15.8% | 4.1%
CN(C)c1ccc(C(=N)Cc2ccc3ccccc3n2)cc1 | 0.0% | -0.3%
CCOc1ccc(-c2nc3c(s2)CCc2onc(-c4ccc(OC)cc4)c2-3)cc1 | -14.6% | -3.6%
Cc1ccc([C@@]2(OC(=O)c3ccccc3)C(=O)N(C(=O)OC(C)(C)C)c3ccccc32)cc1 | -17.7% | 0.6%
COc1ccc(C(C)(NC(C)=O)c2nc(-c3cccc(NC(C)=O)c3)cs2)cc1 (stereo not given) | 3.4% | 0.2%
CCCOc1ccc(/C=C/C(=O)N2CCN(C(=O)c3ccco3)CC2)cc1OC | -20.6% | 13.4%
COc1ccc(OC)c(C(O)c2ncc(-c3ccccc3Cl)[nH]2)c1 (stereo not given) | 9.8% | -0.3%
C[C@H](CO)N1C[C@H](C)[C@@H](CN(C)C(=O)Oc2cccc3ccccc23)OCc2cn(nn2)CCCC1=O | -8.9% | 19.1%
CN(C(=O)c1ccc(NC(=O)Cc2cccc(NC(=O)C3CCN(C(=O)c4ccccc4)CC3)c2)cc1)C1CC1 | 6.7% | -7.2%
Cc1ccc(-c2csc(NCCc3nc4cc(Cl)c(Cl)cc4n3CCOCCO)n2)cc1 | -18.9% | -10.7%
CCCCNC(=O)c1[nH]c(=O)cnc1-c1ccccc1 | 0.0% | 17.0%
O=C(NCc1ccc(Cl)c(Cl)c1)c1cc(C2CCCCN2C(=O)c2ccccn2)on1 (stereo not given) | -3.6% | 11.6%[18.4 µM]
CCc1cc2c(SCC(=O)N3CCN(C(=O)c4cccs4)CC3)ncnc2s1 | ? | 2.8%
COC(=O)[C@]12CCCCC=C1N(CCc1ccc(OC)c(OC)c1)C(=O)[C@H](CC(=O)NCc1cccc3ccccc13)C2 | -22.7% | -21.6%
COc1cc(OC)c(OC)cc1C=Cc1ccc2ccccc2n1 | 11.8% | -23.5%
C[n+]1cccc(NC(=O)c2ccccc2)c1 | -15.6% | -23.4%
Cc1ccccc1-c1cnc(C(O)c2ccc(Cl)cc2C)[nH]1 (stereo not given) | 36.8%[activator] | -15.2%
CC(Oc1ccc(Cl)cc1)C(=O)Nc1cccc(S(=O)(=O)N2CCCC2)c1 (stereo not given) | 0.0% | 4.3%
C[C@H](CO)N1C[C@H](C)[C@@H](CN(C)S(=O)(=O)c2cn(C)cn2)Oc2cc(Br)ccc2S1(=O)=O | -13.5% | -20.1%
CN1OC[C@@H]2CN(Cc3ccccc3)[C@H](c3cccc(-c4ccc(C#N)cc4)c3)C[C@@H]21 | 0.0% | 0.5%
CC(C)(C)c1ccc(CC(=O)N2CCC2(C)C(=O)NS(=O)(=O)c2ccc(F)cc2F)cc1 (stereo not given) | -20.1% | -7.6%
CCCCCC(=O)N1C[C@H](O)[C@@H](n2cc(-c3ccc(F)cc3)nn2)C[C@@H]1c1ccccc1 | -20.5% | -7.2%
OC[C@@H]1CN(Cc2ccccc2)C[C@H](n2cnc3c(NCc4ccco4)ncnc32)O1 | -14.3% | -0.3%
C=Cc1ccc(Cn2c(C)c(C(=O)NCc3ccc(C#N)cc3)sc2=O)cc1 | ? | -14.8%[18.4 µM]
O=C(OCc1ccccc1)N1CCC2CC1c1ccc(N3CCNCC3)cc12 (stereo not given) | 15.1% | -2.5%
CCOC(=O)c1cc2ccccc2n1C1CCN(Cc2ccccc2)CC1 | ? | -18.7%
COCC(=O)N1C[C@H]2CON(C)[C@H]2C[C@H]1c1cccc(-c2ccc(C#N)cc2)c1 | -18.0% | 6.9%
C#CCN1C=CC(=O)[C@@H](OC(=O)Nc2ccc(C)cc2)[C@H]1c1ccccc1Br | -14.3% | 7.3%
CCOC(=O)c1csc(-c2ccc(COC(=O)c3ccccc3)o2)n1 | 10.0% | -17.7%
COC(C/C=C\[C@H](O)[C@@H](C)OCc1ccccc1)OC | -5.9% | 3.8%
COc1ccc(CN2C(=O)c3ccccc3C2c2nnnn2C(C)C)cc1 (stereo not given) | -5.0% | 5.2%
Brc1ccc(-c2nc3c4ccccc4ccn3c2Cc2ccccc2)cc1 | 0.1% | 1.8%
CC(C)c1ccc(CC(=O)N2CCC2(C)C(=O)NCc2cccc3ccccc23)cc1 (stereo not given) | -23.2% | 6.0%
CCCCOCCCNC(=O)C[C@@H]1C[C@@]2(C(=O)OCC)CCCC=C2N(Cc2ccco2)C1=O | 0.0% | 0.5%
COc1ccc(-c2ccc(C(=O)NCc3ccc(C(F)(F)F)cc3)c3occc23)c(C)c1 | -7.5% | -12.4%[18.4 µM]
COc1ccccc1CN1C(=O)C(C)ON=C1c1ccccc1F (stereo not given) | -19.0% | 2.6%[18.4 µM]
O=C(NCc1ccccc1)c1cc(C2CCCCN2S(=O)(=O)c2cccs2)on1 (stereo not given) | 10.1% | 12.7%
CCCc1c(-c2ccccc2F)ncn1CCc1ccccc1OC | 31.6µM* | -15.8%
NC(COCc1ccccc1)c1csc(Nc2ccccn2)n1 (stereo not given) | -25.3% | -13.9%
CCNC(=O)C1(C)CCCN(Cc2noc(-c3ccccc3OC)n2)C1 (stereo not given) | -11.9% | 14.1%

Gathered by group, the entries above containing four or more nitrogen atoms
SMILES | 2A StopGo | RE007 growth inh
CCc1nnc(NS(=O)(=O)c2ccc(NC(=O)c3ccc([N+](=O)[O-])s3)cc2)s1 | 0.0% | 4.1%
COc1ccc(CCN2C(=O)CCC2(C)c2nnnn2-c2ccc3c(c2)OCCO3)cc1OC (stereo not given) | -11.8% | 5.1%
CC(C)C[C@@H](CN)NC(=O)c1nc[nH]c1C(=O)N[C@@H](C)C(=O)CNC[C@H](C)NC(=O)c1nc[nH]c1C(=O)N[C@@H](Cc1ccccc1)C(=O)O | -17.4% | -12.6%
COc1ccccc1C(=O)NCCN1CCC(n2c(=O)[nH]c3ccccc32)CC1 | -1.2% | 0.0%
COc1cccc(C(=O)NCCNc2nc3cc(C)cc(C)c3cc2C#N)c1 | -11.2% | 0.0%
CCN(C(=O)COC(=O)c1cc2ccccc2cc1OC)c1c(N)n(Cc2ccccc2)c(=O)[nH]c1=O | ? | 5.7%
COCCN1C(=O)CCC1(C)c1nnnn1Cc1ccccc1 (stereo not given) | -15.8% | 4.1%
C[C@H](CO)N1C[C@H](C)[C@@H](CN(C)C(=O)Oc2cccc3ccccc23)OCc2cn(nn2)CCCC1=O | -8.9% | 19.1%
CN(C(=O)c1ccc(NC(=O)Cc2cccc(NC(=O)C3CCN(C(=O)c4ccccc4)CC3)c2)cc1)C1CC1 | 6.7% | -7.2%
Cc1ccc(-c2csc(NCCc3nc4cc(Cl)c(Cl)cc4n3CCOCCO)n2)cc1 | -18.9% | -10.7%
O=C(NCc1ccc(Cl)c(Cl)c1)c1cc(C2CCCCN2C(=O)c2ccccn2)on1 (stereo not given) | -3.6% | 11.6%[18.4 µM]
CCc1cc2c(SCC(=O)N3CCN(C(=O)c4cccs4)CC3)ncnc2s1 | ? | 2.8%
C[C@H](CO)N1C[C@H](C)[C@@H](CN(C)S(=O)(=O)c2cn(C)cn2)Oc2cc(Br)ccc2S1(=O)=O | -13.5% | -20.1%
CCCCCC(=O)N1C[C@H](O)[C@@H](n2cc(-c3ccc(F)cc3)nn2)C[C@@H]1c1ccccc1 | -20.5% | -7.2%
OC[C@@H]1CN(Cc2ccccc2)C[C@H](n2cnc3c(NCc4ccco4)ncnc32)O1 | -14.3% | -0.3%
COc1ccc(CN2C(=O)c3ccccc3C2c2nnnn2C(C)C)cc1 (stereo not given) | -5.0% | 5.2%
NC(COCc1ccccc1)c1csc(Nc2ccccn2)n1 (stereo not given) | -25.3% | -13.9%
CCNC(=O)C1(C)CCCN(Cc2noc(-c3ccccc3OC)n2)C1 (stereo not given) | -11.9% | 14.1%

Screens deposited in PubChem BioAssay by National Center for Advancing Translational Sciences (NCATS).
